# Screening data (PubChem)
# ID4 binder: ID4 (human) binding; calls only; AID 624137; actives 1.2% (n = 31,000); small molecule microarray, Flag-ID4 binding, fluorescence F/B;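 active means spot signal over background at p below 0.07 in all four prints; compounds were printed on slides so no solution concentration is given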;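 further: a binder raises fluorescence above local background on the spot; about 2 pmol printed per array spot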
# Target sequence (P47928 whole entry, looked up): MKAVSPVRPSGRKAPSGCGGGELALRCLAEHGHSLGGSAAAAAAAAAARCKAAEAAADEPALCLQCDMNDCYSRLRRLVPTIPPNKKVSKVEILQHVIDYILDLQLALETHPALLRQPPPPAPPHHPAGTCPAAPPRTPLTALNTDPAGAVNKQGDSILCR
# Calls only; i = inactive.
SMILES,ID4 binder
COc1cc(S(=O)(=O)n2nc(C)cc2C)c(OC)cc1Cl,i
Cc1ccc(O)c(NC(=O)CCCC(=O)O)c1,i
CCCN(C)C[C@@H]1Oc2cc(-c3ccc(C)cc3)ccc2S(=O)(=O)N([C@@H](C)CO)C[C@@H]1C,i
C[C@@H](O)C#Cc1cnc2c(c1)C(=O)N([C@@H](C)CO)C[C@H](C)[C@H](CN(C)CC1CC1)O2,i
CCc1cccc(C)c1NC(=O)CSc1nnc(-c2ccc(OC)cc2)n1C,i
CCCN(C)C[C@@H]1Oc2cc(-c3ccncc3)ccc2S(=O)(=O)N([C@@H](C)CO)C[C@@H]1C,i
COC(=O)c1c(NC(=S)Nc2ccc(S(=O)(=O)NC34CC5CC(CC(C5)C3)C4)cc2)sc(C(=O)N(C)C)c1C,i
CC(C)CC#Cc1cnc2c(c1)C(=O)N([C@@H](C)CO)C[C@H](C)[C@H](CN(C)C(=O)c1ccc(F)cc1)O2,i
O=C(O)C[C@H]1C[C@H]2c3cc(NC(=O)Nc4ccccc4F)ccc3O[C@H]2[C@@H](CO)O1,i
O=[N+]([O-])c1cc(C(F)(F)F)ccc1NCCNS(=O)(=O)c1ccc(Br)cc1,i
COc1ccc(NC(=O)CN(c2cccc(F)c2)S(C)(=O)=O)cc1OC,i
CNC(=O)CN(c1ccccc1C)S(=O)(=O)c1ccc(C)cc1,i
CCOc1ccc(Br)cc1C(=O)NCCc1c[nH]c2ccccc12,i
CCC(=O)N(C)C[C@H]1Oc2ncc(-c3ccccc3F)cc2C(=O)N([C@@H](C)CO)C[C@@H]1C,i
COCC(=O)N(C)C[C@@H]1Oc2ncc(-c3ccccc3F)cc2C(=O)N([C@@H](C)CO)C[C@@H]1C,i
COc1ccc2nc(SCC(=O)NC3CCCCCC3)[nH]c2c1,i
O=C(N[C@H]1C=C[C@H](CC(=O)N2CCOCC2)O[C@H]1CO)c1ccc2c(c1)OCO2,i
C[C@@H]1CN([C@H](C)CO)C(=O)c2cc(C#CC3CC3)cnc2O[C@H]1CN(C)Cc1ccccc1C(=O)O,i
CCc1cc2c(=O)n(CC(=O)Nc3cc(OC)ccc3OC)cnc2s1,i
CCN(CC(=O)Nc1ccc2c(c1)OCCO2)S(=O)(=O)c1ccc(C)cc1,i
C[C@H]1CN([C@@H](C)CO)C(=O)c2ccccc2-c2ccccc2CO[C@@H]1CN(C)C(=O)Nc1cccc(F)c1,i
CC(=O)N[C@H]1CC[C@H](CCNC(=O)C2CCC2)O[C@H]1CO,i
O=C(C[C@H]1C=C[C@H](NC(=O)CC2CC2)[C@H](CO)O1)NCc1ccc(-c2ccccc2)cc1,i
Cc1ccnc(NS(=O)(=O)c2ccc(NC(=O)c3cncc(Br)c3)cc2)n1,i
Cc1ccccc1-c1nnc(SCC(=O)Nc2ccc(Br)cc2F)n1C,i
# Additional records follow:
SMILES,ID4 binder
Cc1ccc(-c2ccc3c(c2)O[C@@H](CN(C)C)[C@H](C)CN([C@@H](C)CO)S3(=O)=O)cc1,i
CCCC#Cc1cnc2c(c1)C(=O)N([C@@H](C)CO)C[C@H](C)[C@H](CN(C)C(=O)c1cccc(F)c1)O2,i
O=C(C[C@@H]1CC[C@H](NC(=O)CN2CCOCC2)[C@H](CO)O1)NCCc1ccncc1,i
C[C@H](CO)N1C[C@H](C)[C@H](CN(C)C(=O)c2ccc3c(c2)OCO3)Oc2ncc(/C=C/c3ccccc3)cc2C1=O,i
COc1cccc(-c2cnc3c(c2)C(=O)N([C@H](C)CO)C[C@H](C)[C@@H](CN(C)CC2CCOCC2)O3)c1,i
CN(Cc1nc(-c2ccccc2)no1)S(=O)(=O)c1ccc(Br)cc1,i
O=C(N[C@@H]1CC[C@H](CC(=O)N2CCc3ccccc3C2)O[C@H]1CO)C1CCOCC1,i
CC(C)OC(=O)N(C)C[C@H]1OCc2ccccc2-c2ccccc2C(=O)N([C@H](C)CO)C[C@H]1C,i
COc1ccc(C#Cc2ccc3c(c2)O[C@H](CN(C)C)[C@@H](C)CN([C@H](C)CO)S3(=O)=O)cc1,i
Cc1c(NC(=O)COc2ccc(Br)cc2)cccc1-c1nc2cc(Cl)ccc2o1,i
Cc1ccc(C)c(S(=O)(=O)NC(Cc2c[nH]c3ccccc23)C(=O)O)c1 (centres undefined),i
COc1ccc(OCC(=O)Nc2cccc(-c3cnc4ccccc4n3)c2)cc1,i
C[C@H](CO)N1C[C@H](C)[C@H](CN(C)Cc2ccncc2)OCc2ccccc2-c2ccccc2C1=O,i
COc1c(C)cccc1C(=O)N1CCN(c2ccc([N+](=O)[O-])c(NCc3ccco3)c2)CC1,i
COC(=O)c1ccccc1NC(=O)C(C)N(c1ccc(Cl)cc1)S(C)(=O)=O (centres undefined),i
Cc1cc(C)n(-c2nc3cc(Cl)c(Cl)cc3n3c(C)nnc23)n1,i
O=C(CSc1nnc(-c2ccccc2)c(-c2ccccc2)n1)C1CC1,i
C/C=C/c1ccc2c(c1)O[C@@H](CN(C)C(=O)C1CCCCC1)[C@H](C)CN([C@H](C)CO)S2(=O)=O,i
COc1cccc(OCC(=O)Nc2cccc(-c3nnc(-c4ccccc4)o3)c2)c1,i
COc1ccc(CNc2nc3nc(-c4ccccc4)cc(=O)n3[nH]2)cc1OC,i
O=C(C[C@@H]1CC[C@H](NS(=O)(=O)c2ccccc2F)[C@@H](CO)O1)NCCCN1CCOCC1,i
CCCN(C)C[C@@H]1Oc2cc(C#CCC(C)C)ccc2S(=O)(=O)N([C@H](C)CO)C[C@@H]1C,i
C[C@H](NC(=O)C[C@H]1C=C[C@@H](NC(=O)C2CC2)[C@@H](CO)O1)c1ccccc1,i
COc1ccc(C)cc1NC(=O)CSc1nc(C)cc(-c2ccccc2)n1,i
COc1cc(OC)cc(-c2nnc(SCC(=O)Nc3ccc(I)cc3)o2)c1,i
# The listing continues.
SMILES,ID4 binder
O=C(CSc1ncc(-c2ccccc2)nn1)c1ccc(Br)cc1,i
COC(=O)c1ccc(NC(=O)CN(C)S(=O)(=O)c2ccccc2)cc1,i
O=C(CSc1nc(O)cc(=O)n1-c1ccccc1)Nc1cccc2ccccc12,i
CCc1ccc(OCC(=O)Nc2cccc3ncccc23)cc1,i
CCCN(C)C[C@@H]1Oc2ncc(C#CC3CCCCC3)cc2C(=O)N([C@H](C)CO)C[C@H]1C,i
CCCN(C)C[C@H]1Oc2cc(C#CC3CC3)ccc2S(=O)(=O)N([C@H](C)CO)C[C@H]1C,i
COCC#Cc1ccc2c(c1)O[C@@H](CN(C)Cc1ccccc1)[C@@H](C)CN([C@@H](C)CO)S2(=O)=O,i
CCn1c(SCC(=O)Nc2cccc(OC)c2)nnc1-c1ccc(Br)cc1,i
O=C(C[C@H]1CC[C@H](NC(=O)c2ccccc2)[C@H](CO)O1)Nc1ccc(-c2ccccc2)cc1,i
O=C(O)c1cccc(CSc2nnc(-c3ccc(Cl)cc3)o2)c1,i
CO[C@@H](CN(C)Cc1cc(F)ccc1F)[C@@H](C)CN(C(=O)Nc1ccc(C(F)(F)F)cc1)[C@@H](C)CO,i
CCc1c(O)nc(SC2CC(=O)N(c3ccc(F)c(Cl)c3)C2=O)[nH]c1=O (centres undefined),i
O=C(C[C@@H]1C=C[C@@H](NC(=O)Nc2cc(F)ccc2F)[C@H](CO)O1)Nc1ccc(-c2ccccc2)cc1,i
C[C@H](CO)N1C[C@H](C)[C@H](CN(C)Cc2ccccn2)Oc2ncc(-c3ccc(F)cc3)cc2C1=O,i
CN(CC(=O)Nc1ccccc1C#N)S(=O)(=O)c1ccc2ccccc2c1,i
CC(C)c1ccccc1OCC(=O)Nc1ccccc1C(N)=O,i
C[C@@H]1CC[C@]2(C(=O)O)CC[C@]3(C)C(=CCC4[C@@]5(C)CC[C@H](O)C(C)(C)C5CC[C@]43C)C2[C@H]1C (some centres undefined),i
C[C@H](CO)N1C[C@H](C)[C@H](CN(C)Cc2cccc(F)c2)OCc2ccccc2-c2ccccc2C1=O,i
CC(=O)N(C)C[C@H]1Oc2ncc(-c3cncnc3)cc2C(=O)N([C@@H](C)CO)C[C@H]1C,i
COc1cc(S(=O)(=O)NCc2ccco2)ccc1Br,i
CCCN(C)C[C@H]1Oc2ncc(Br)cc2C(=O)N([C@H](C)CO)C[C@@H]1C,i
CCCN(C)C[C@H]1Oc2ncc(-c3ccccc3F)cc2C(=O)N([C@H](C)CO)C[C@@H]1C,i
O=C(CSc1nccc(=O)[nH]1)Nc1cccc(I)c1,i
C[C@@H]1CN([C@@H](C)CO)C(=O)c2cc(NC(=O)C3CC3)ccc2O[C@H]1CN(C)Cc1ccccc1,i
CCn1c(SCC(=O)Nc2ccc3c(c2)OCCO3)nnc1-c1cccnc1,i

# By substructure, those above with a thiophene ring, fused or not (two)
SMILES,ID4 binder
COC(=O)c1c(NC(=S)Nc2ccc(S(=O)(=O)NC34CC5CC(CC(C5)C3)C4)cc2)sc(C(=O)N(C)C)c1C,i
CCc1cc2c(=O)n(CC(=O)Nc3cc(OC)ccc3OC)cnc2s1,i

# Returning to the listing, starting six compounds before the break.
SMILES,ID4 binder
COc1cc(S(=O)(=O)NCc2ccco2)ccc1Br,i
CCCN(C)C[C@H]1Oc2ncc(Br)cc2C(=O)N([C@H](C)CO)C[C@@H]1C,i
CCCN(C)C[C@H]1Oc2ncc(-c3ccccc3F)cc2C(=O)N([C@H](C)CO)C[C@@H]1C,i
O=C(CSc1nccc(=O)[nH]1)Nc1cccc(I)c1,i
C[C@@H]1CN([C@@H](C)CO)C(=O)c2cc(NC(=O)C3CC3)ccc2O[C@H]1CN(C)Cc1ccccc1,i
CCn1c(SCC(=O)Nc2ccc3c(c2)OCCO3)nnc1-c1cccnc1,i
S=C1NN(c2ccccc2)C2=C(CCC2)S1,i
CC(C)(C)c1cc(O)c(C(C)(C)C)cc1O,i
Cc1ccc(NC(=O)COc2ccccc2C)c([N+](=O)[O-])c1,i
CCCn1nnc(NC(=O)COc2ccc(Cl)cc2C)n1,i
CCNC(=O)C[C@@H]1CC[C@H](NC(=O)C2CC2)[C@@H](CO)O1,i
O=S(=O)(c1ccc(Br)cc1)c1nc(-c2ccc(F)cc2)oc1NCc1cccnc1,i
C[C@H]1CN([C@@H](C)CO)C(=O)c2cc(-c3ccc(F)cc3)cnc2O[C@@H]1CN(C)C(=O)C1CCC1,i
C[C@@H]1CN([C@@H](C)CO)S(=O)(=O)c2ccc(C#CC3CC3)cc2O[C@H]1CN(C)CC1CCCC1,i
C[C@@H]1CN([C@H](C)CO)C(=O)CCCn2cc(nn2)CO[C@@H]1CN(C)Cc1cccc(C(F)(F)F)c1,i
COC(=O)C[C@@H]1C=C[C@H](NC(=O)Nc2ccc(C(F)(F)F)cc2)[C@@H](CO)O1,i
Cc1nc(C)c(C(=O)C2C(=O)C(=O)N(CCN3CCOCC3)C2c2cccs2)s1 (centres undefined),i
Cc1ccc(NC(=O)CSc2nnc(-c3ccco3)n2C)c(Br)c1,i
O=C(N[C@@H]1C=C[C@H](CC(=O)N2CCOCC2)O[C@H]1CO)c1ccc2c(c1)OCO2,i
COC(=O)c1cccc(NC(=O)CN(c2ccc(Cl)c(C(F)(F)F)c2)S(C)(=O)=O)c1C,i
C[C@@H]1CN([C@H](C)CO)S(=O)(=O)c2ccc(C#CC3CC3)cc2O[C@H]1CN(C)C(=O)c1cccc(F)c1,i
Cc1ccn2c(-c3csc(NCc4ccco4)n3)c(C)nc2c1,i
COc1cc(Br)c(CN(CCc2ccc(O)cc2)C(=O)C(F)(F)F)cc1O,i
Brc1cc(Br)c2ncc(-c3ccc4ccccc4n3)cc2c1,i
COc1ccccc1-c1cnc2c(c1)C(=O)N([C@@H](C)CO)C[C@@H](C)[C@H](CN(C)Cc1ccccc1)O2,i
COc1cccc(NC(=O)N(C)C[C@H]2Oc3ncc(C#Cc4ccncc4)cc3C(=O)N([C@H](C)CO)C[C@H]2C)c1,i
Cc1sc(NC(=O)COc2ccccc2C(C)C)c(C(N)=O)c1C,i
C[C@@H](NC(=O)C[C@@H]1CC[C@H](NC(=O)C2CCC2)[C@H](CO)O1)c1ccccc1,i
Cc1ccc(NC(=O)C(=O)NCCc2c[nH]c3ccccc23)cc1Cl,i
Cc1ccc(-c2ccc3c(c2)O[C@H](CN(C)CC2CC2)[C@H](C)CN([C@H](C)CO)S3(=O)=O)cc1,i
C[C@H](CO)N1C[C@H](C)[C@H](CN(C)CC2CC2)Oc2ccc(NC(=O)CCC(F)(F)F)cc2C1=O,i

# Rewritten tab-delimited: entries from further up
Molecule	ID4 binder
S=C1NN(c2ccccc2)C2=C(CCC2)S1	i
CC(C)(C)c1cc(O)c(C(C)(C)C)cc1O	i
Cc1ccc(NC(=O)COc2ccccc2C)c([N+](=O)[O-])c1	i

# New compounds follow
SMILES,ID4 binder
C[C@@H]1CN([C@@H](C)CO)C(=O)c2cc(C#CCN(C)C)cnc2O[C@H]1CN(C)Cc1ccc(C(=O)O)cc1,i
O=C(O)CSc1nnc(-c2ccncc2)n1-c1ccc(Cl)cc1,i
N#C[C@H]1[C@@H](c2ccc(-c3cccnc3)cc2)[C@@H](CO)N1C(=O)C1CC1,i
CC(=O)Nc1ccc(OCC(O)Cn2nc(C)c(Br)c2C)cc1 (centres undefined),i
CCOc1cc(S(=O)(=O)NCc2ccco2)ccc1Cl,i
COc1cc(CO)ccc1OCC(=O)Nc1ccc(Br)cc1,i
COc1cc2ncc(-c3ccccc3)nc2cc1OC,i
CN(C)C(=O)C[C@H]1C[C@@H]2c3cc(NC(=O)CC4CC4)ccc3O[C@@H]2[C@H](CO)O1,i
C[C@H]1CN([C@@H](C)CO)S(=O)(=O)c2ccc(C#CC3CCCCC3)cc2O[C@H]1CN(C)C,i
CC(=O)Cn1c2ccccc2n2nc(CCC(=O)O)c(=O)nc12,i
O=C(COc1ccc(S(=O)(=O)N2CCOCC2)cc1)Nc1ccc(Cl)c(C(F)(F)F)c1,i
COc1ccc(CCN2C(=O)c3oc4ccc(C)cc4c(=O)c3C2c2cccc([N+](=O)[O-])c2)cc1OC (centres undefined),i
CC(=O)N(C)C[C@H]1Oc2ncc(C#Cc3ccc(F)cc3)cc2C(=O)N([C@H](C)CO)C[C@H]1C,i
COc1ccc(CC(=O)Nc2ccc(O)cc2C(=O)O)cc1OC,i

# A draw from above in order of SMILES length, largest number first.
SMILES,ID4 binder
Cc1ccn2c(-c3csc(NCc4ccco4)n3)c(C)nc2c1,i
Brc1cc(Br)c2ncc(-c3ccc4ccccc4n3)cc2c1,i
COc1cc2ncc(-c3ccccc3)nc2cc1OC,i

# An excerpt; rates above refer to the full screens.
